gsp antag = qHTS for Antagonists of gsp, the Etiologic Mutation Responsible for Fibrous Dysplasia/McCune-Albright Syndrome: qHTS; gsp-mutant cells, cAMP HTRF, 30 min; control for the full effect not named in the record; Potency, µM (series often up to 76.9 µM), for the others: top-dose activity change, negative = inhibition, actives largely listed as inhibitors; 0.4% of 340,000 active; AID 624288, 2012; active = falling curve of any shape with a large fitted effect; inconclusive = falling curve, mostly with a smaller effect; inactive = flat or rising curve; cell line not stated here;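 also: intracellular cAMP measured with PDE inhibitor Ro 20-1724 present during compound exposure; potency is read from the fitted curve at half-maximal effect; % is scaled to controls: 0 for no effect and ±100 for the full control effect; nearly all actives have a fitted effect of over 65% in size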
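G418-selected cells were plated in DMEM/10% FBS for 16-24 h at 37C, then treated with compounds plus the PDE inhibitor […] (300 uM solution added) for 30 min at 37C. Intracellular cAMP was measured by HTRF after 30 min lysis at room temperature.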
CtBP-E1A blk = qHTS Assay for Inhibitors of the CtBP/E1A Interaction | AlphaScreen GST-E1A/His-CtBP binding, 1536-well; hits give low values; control for the full effect not named in the record | AID 651724, 2012 | activity change, % (test concentration not listed) | 0.49% of 340,000 active | CtBP / adenovirus E1A interaction (AlphaScreen); in the data active means activity change below about -65%; inconclusive means about -30% to -65%; inactive means above about -30%; also: % is scaled to controls: 0 for no effect and ±100 for the full control effect; compound concentration not given in the record
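Protein mix (5X: 125 nM each GST-E1A, His-CtBP) was incubated with pinned compound 2 h at 37 deg C in dark, in 50 mM Tris pH 8.0 buffer with 300 mM NaCl. Glutathione donor and nickel acceptor beads followed; AlphaScreen signal read after 1 h.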
ClpP mod = qHTS Assay for Activators of ClpP; purified B. subtilis ClpP, FRET peptide cleavage, 20 min; ATP-dependent Clp protease proteolytic subunit (Bacillus subtilis (strain 168)), P80244; Potency, µM (doses to about 57.5 µM), without a hit: at the highest dose activity change, negative = active; 1.9% of 340,000 active; active = well fitted falling curve with a large enough effect; inconclusive = small, poorly fitted or top-dose-only effect; inactive = no such curve, though single readings can be large or run the other way; also: potency is read from the fitted curve at half-maximal effect; the source files actives as falling curves though it sought activators and does not explain the sign; nearly all actives have a fitted effect of over 65% in size; many hits overshoot -100%
Target sequence (P80244 whole entry, looked up): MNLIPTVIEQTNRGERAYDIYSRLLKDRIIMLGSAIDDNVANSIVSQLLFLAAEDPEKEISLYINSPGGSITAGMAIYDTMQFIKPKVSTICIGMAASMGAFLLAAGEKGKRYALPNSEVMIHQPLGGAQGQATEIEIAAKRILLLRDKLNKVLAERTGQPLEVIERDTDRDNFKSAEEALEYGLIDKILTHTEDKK
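Buffer: 100 mM Tris/HCl pH8, 100 mM KCl, 0.05% low protease BSA, 2.5% glycerol, 0.01% Tween-20. ClpP 10 microg/mL final; 20 min RT; delta FRET normalized to ADEP and DMSO controls.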
Menin MLL FP FL = qHTS Assay for Inhibitors Targeting the Menin-MLL Interaction in MLL Related Leukemias: Competition With Fluorescein Labeled MLL-derived Peptide. Fluorescence polarization, fluorescein-MLL peptide displacement from menin. FP activity change, % at 61.4 µM. 290,000 tested, under 10 active; inconclusive = falling polarisation curve, or a change in total fluorescence; inactive = total fluorescence flat and polarisation flat or rising; no compound was filed as active; the % refers to the polarisation; negative = inhibition;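 also: % of control where 0% means no effect; inhibitors lower the polarisation; unlabelled MLL peptide was the positive control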
TRPV1 PAM = HTS Assay for Compounds that Act as Potentiators of the Vanilloid Receptor 1 | Transient receptor potential cation channel subfamily V member 1 (Homo sapiens), Q8NER1 | TRPV1-expressing cells, Fluo-8 calcium influx, capsaicin EC20 potentiation; host cell line not named in the record; control for the full effect not named in the record | potentiation, % at 8.33 µM | 0.02% of 320,000 active; active means potentiation above 80%; inconclusive means 30% to 80%; inactive means below 30%; also: 0% is about no effect
Target sequence (Q8NER1 whole entry, looked up): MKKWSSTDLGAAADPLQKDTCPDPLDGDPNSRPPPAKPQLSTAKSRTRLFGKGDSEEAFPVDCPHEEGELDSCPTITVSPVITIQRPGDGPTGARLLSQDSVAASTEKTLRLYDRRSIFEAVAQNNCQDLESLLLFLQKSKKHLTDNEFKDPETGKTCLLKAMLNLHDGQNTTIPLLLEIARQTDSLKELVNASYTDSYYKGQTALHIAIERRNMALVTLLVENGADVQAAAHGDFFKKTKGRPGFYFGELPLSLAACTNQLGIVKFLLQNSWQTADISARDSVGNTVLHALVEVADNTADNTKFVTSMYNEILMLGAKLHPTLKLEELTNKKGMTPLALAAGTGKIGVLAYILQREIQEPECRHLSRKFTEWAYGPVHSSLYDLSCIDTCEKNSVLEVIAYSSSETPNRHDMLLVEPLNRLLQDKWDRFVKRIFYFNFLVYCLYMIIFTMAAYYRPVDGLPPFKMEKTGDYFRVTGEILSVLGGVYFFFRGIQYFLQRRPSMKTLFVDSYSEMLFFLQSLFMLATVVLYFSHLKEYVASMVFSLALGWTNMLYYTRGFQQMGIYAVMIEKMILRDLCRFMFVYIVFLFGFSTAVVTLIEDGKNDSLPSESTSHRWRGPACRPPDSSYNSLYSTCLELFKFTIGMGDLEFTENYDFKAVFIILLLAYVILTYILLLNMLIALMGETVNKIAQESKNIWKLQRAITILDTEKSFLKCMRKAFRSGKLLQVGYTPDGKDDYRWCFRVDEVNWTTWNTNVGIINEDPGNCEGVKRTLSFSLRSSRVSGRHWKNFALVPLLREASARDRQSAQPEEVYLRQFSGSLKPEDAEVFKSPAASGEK
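Cells expressing TRPV1 were dye-loaded with Fluo-8 and read kinetically: 10 s baseline, 3 min after compound (agonist portion), then 2 min after EC20 capsaicin (allosteric enhancer portion). Calcium-bound dye fluorescence at 480/520 nm.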
Sfp inh = qHTS Assay for Inhibitors of Bacillus subtilis Sfp phosphopantetheinyl transferase (PPTase) | 4'-phosphopantetheinyl transferase ffp (Bacillus subtilis), Q9F4F7 | Biochemical Sfp PPTase activity, qHTS | Potency, µM, for inactives: max response, negative = inhibition, hits mostly inhibitors | 3.5% of 310,000 active | AID 1490, 2009; active = well fitted inhibition curve with a large enough effect; inconclusive = small, poorly fitted or top-dose-only effect, or another doubt; inactive = no such curve, though single readings can be large or run the other way;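 also: the enzyme is Sfp with the accession as filed and its product quenches rhodamine fluorescence; potency is read from the fitted curve at half-maximal effect; 0% = enzyme reaction without inhibitor and -100% = no enzyme wells; top concentration of the series not given in the record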
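Sfp 15 nM + cpd, 15 min RT; start w/ rhodamine-CoA 5 uM, BHQ-2-YbbR 12.5 uM (final); 50 mM Hepes pH 7.6, 10 mM MgCl2, 0.01% NP-40, 0.01% BSA; read 525/598 nm at 0 and 30 min.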
gsp agonist = qHTS for Agonist of gsp, the Etiologic Mutation Responsible for Fibrous Dysplasia/McCune-Albright Syndrome: qHTS | Potency, µM (titrated, usually from 76.9 µM), without a hit: top-dose activation (cAMP increase), actives largely listed as activators | AID 624287, 2012 | 0.13% of 340,000 active | gsp mutant cells, cAMP HTRF, 30 min; control for the full effect not named in the record; active = well fitted activation curve with a large enough effect; inconclusive = small, poorly fitted or top-dose-only effect, or another doubt; inactive = no such curve, though single readings can be large or run the other way; cell line not stated here;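 also: phosphodiesterase inhibitor Ro 20-1724 added with compounds to block cAMP breakdown; potency is read from the fitted curve at half-maximal effect; nearly all actives have a fitted effect of over 60% in size; about a fifth of the inactives were tested at one dose only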
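Cells in DMEM/10% FBS with G418 were pretreated with compounds in DMSO plus […] (300 uM stock) for 30 min at 37C. cAMP was measured by HTRF (cAMP-d2 plus anti-cAMP antibody-K) after 30 min at room temperature.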
* hit, by the source's call; ? = inconclusive; / = no result given; & = joins results of further samples; [ ] = another dose, or the depositor's remark.

SMILES	Sfp inh	ClpP mod	CtBP-E1A blk	TRPV1 PAM	gsp agonist	gsp antag	Menin MLL FP FL
N#Cc1c(NC(=O)C2CC(Cl)=CCC2C(=O)O)sc2c1CCCC2 (stereo not given)	19.1%	/	0.1	5.6	20.8%[15.4 µM]	?	-1.5
CCCCCCNC(=O)C(C#N)c1nc2ccccc2nc1N1CCOCC1 (stereo not given)	10.6%	-3.0%	-3.0	-3.2	-46.8%[inhibitor]	-1.2%	?
Cc1ccc(C(=O)Nc2cccc(N(C)S(C)(=O)=O)c2)cc1S(=O)(=O)Nc1ccccc1	15.6%	-1.4%	47.7	21.0	-29.8%	?	-1.3
Cc1ccc(C)c(S(=O)(=O)N2CCCC2CNC(=O)C(=O)NCCc2ccco2)c1 (stereo not given)	/	/	-1.2	-8.7	6.2%[15.4 µM]	6.6%	/
COc1ccc(CCNC(=O)CSc2nc(N)c(C#N)c(-c3cccs3)c2C#N)cc1OC	7.7%	23.2%	-4.7	0.3	?	-5.8%	2.7
Cc1cccc(C(=O)Nc2cccc(C(=O)N/N=C/c3cccc(C)n3)c2)c1	8.9%	/	?	2.9	-25.4%	-0.3%	0.9
CCN(CC)C(=O)C1=C(C)N(CCCOC)C(=O)C(CC(=O)NC2CCCCC2)C1 (stereo not given)	/	0.6%	5.3	/	-34.3%[inhibitor]	/	/
CCc1nc2ccc(C(=O)O)cc2nc1CC	-11.0%	-5.8%	1.2	-10.4	-31.6%[inhibitor]	-15.0%	?
Cc1ccc(-c2n[nH]c(=S)n2/N=C\c2ccco2)cc1	?	-0.4%	0.5	7.8	-60.4%[inhibitor]	2.7%	3.8
CCC(C)Nc1nc2c(c(=O)[nH]c(=O)n2C)n1CCC(C)C (stereo not given)	9.4%	2.8%	6.3	9.0	-18.2%	17.0%	0.5
CN1CCCN(C(c2ccccc2)c2ccc(Cl)cc2)CC1 (stereo not given)	-20.0%&-14.6%	2.9%	-4.6	6.2	/	0.6%	-3.2&-1.3
O=C(COC(=O)c1c[nH]c2ccccc12)Nc1ccc(F)cc1	/	-2.0%	-17.0	13.0	-14.1%	-1.9%	/
COc1ccccc1C(=O)NCCCNC(=O)c1cccnc1	3.5%	/	2.3	-11.5	-0.6%	12.4%	-7.0
COCCNc1nc2ccccc2n1CC(=O)c1ccc(OC)c(OC)c1	13.7%	/	-8.4	?	-53.5%[inhibitor]	3.9%	1.5
CCOc1ccc(-c2nnc(-c3ccccc3)o2)cc1	8.9%	28.2µM*	1.2	-3.9	0.2%	-8.8%	0.4
CC(=O)c1cccc(NC(=O)CN2C(=O)COc3ccc(S(=O)(=O)N4CCOCC4)cc32)c1	20.9%	0.7%	/	-3.1	10.8%	?	-3.5
CCCC(=O)N1CCN(c2ccc(NC(=O)c3cc4ccccc4o3)cc2Cl)CC1	-14.8%	-12.4%	-7.6	-15.2	-4.2%	?	3.8
Fc1ccccc1-c1nc(-c2cnccc2C(F)(F)F)no1	5.3%	/	21.9	-1.4	4.1%	-8.3%	-0.7
COc1ccc(CN(C)CC(=O)Nc2cc3oc4ccccc4c3cc2OC)c(OC)c1	-18.5%	?	1.2	5.0	-26.5%	?	4.4
Cc1ccc(NC(=O)c2ccc(COc3ccccc3[N+](=O)[O-])o2)nc1	/	1.7%	/	-14.7	18.0%	?	/
CCn1ccnc1CN1CCCC(C(=O)c2ccc3cc(OC)ccc3c2)C1 (stereo not given)	?	/	-6.6	-10.0	-2.1%[15.4 µM]	-31.0%	1.9
O=C(CSc1nnc(C2CCCCC2)o1)N1CCCCC1	1.9%	1.4%	5.0	-8.2	8.6%	1.6%	2.3
O=C1c2ccccc2C(=O)c2c1cccc2N1CCN(C/C=C/c2ccccc2)CC1	/	/	-14.4	/	-9.6%[15.4 µM]	-0.1%	/
CC(C)Oc1cccc(C(=O)NC(=S)Nc2ccc(Cl)c(C(=O)O)c2)c1	-16.5%	6.3%	2.3	23.4	1.0%	-7.8%	-0.1
O=C1C(=O)N(CCCn2ccnc2)C(c2ccccn2)/C1=C(/O)c1ccccc1 (stereo not given)	12.8%	/	/	-8.1	/	/	-0.9
COc1cc(CNc2nc3ccccc3[nH]2)cc(OC)c1OC	6.5%	-0.8%	-0.6	-33.7	-13.8%	-1.9%	4.1
NC(=O)c1c(NC(=O)c2ccc(S(=O)(=O)N3CCOCC3)cc2)sc2c1CCCCC2	?	0.1%	-1.5	-19.1	-1.4%[15.4 µM]	4.9%	0.2
CCOC(=O)c1c(NC(=O)c2ccnn2C)sc(C)c1C	-5.5%	-7.4%	1.6	7.1	2.1%	9.6%	0.2
CN1C2C=C3C(C#N)=C(N)C(C#N)(C#N)[C@@H](c4cccs4)C3C1CC2 (stereo not given in full)	-2.8%	43.2%	-2.0	14.2	28.6%	7.3%	?
O=C(c1ccc(Cl)cc1Cl)N1CCOCC1	/	/	8.0	/	24.2%	12.9%	/
C/C=C1\COC(C(=O)NCc2cccc(OC)c2OC)(C(F)(F)F)C=C1C=C1CCCCC1 (stereo not given)	11.3%	-7.2%	-3.4	/	/	-4.9%	-0.1
O=C(Cc1cccc2ccccc12)NCC(=O)N1CCN(Cc2cccc(C(F)(F)F)c2)CC1	/	0.6%	/	3.0	-42.1%	?	/
Cn1c(CN2CCOCC2)nc2cc(NC(=O)COc3ccc([N+](=O)[O-])cc3)ccc21	-5.3%	-0.6%	-1.9	6.9	10.4%[15.4 µM]	-15.6%	1.3
COCCOC(=O)C1=C(C)N=C2SCCC(=O)N2C1c1ccc(C(=O)OC)cc1 (stereo not given)	8.3%	-0.4%	-0.9	4.0	5.1%	3.0%	3.5
CCCOc1cccc(-c2nnc(NC(=O)c3ccco3)s2)c1	10.6%	-13.0%	/	28.8	20.9%	1.8%	/
O=C(C=Cc1ccccc1Cl)c1ccccc1	/	/	5.2	/	?	6.1%	/
O=C(Nc1ccc2c(c1)nc1n2CCN(Cc2ccccc2)C1)NC1CCCCC1	-0.9%	28.2µM*	-17.9	-3.5	-37.3%[inhibitor]	4.3%	6.8
Cc1ccc(C(=O)N2CCN(Cc3ccc4c(c3)OCO4)CC2)c(Cl)c1	4.3%	/	0.0	-13.1	6.0%	-2.3%	-0.6
CN(c1ccccc1)S(=O)(=O)c1cccc(NC(=O)CCNC(=O)c2ccc([N+](=O)[O-])cc2)c1	/	-0.9%	-13.0	/	8.7%[15.4 µM]	-23.6%	/
Cc1ccc(S(=O)(=O)N2CCN(c3ccc([N+](=O)[O-])cn3)CC2)cc1	8.1%	/	7.3	-0.8	22.7%[15.4 µM]	3.9%	0.4
COc1ccc(Nc2cc(C)nc(N)n2)cc1	25.2%	1.0%	/	13.2	11.2%	0.7%	3.2
CCOc1ccc(S(=O)(=O)Nc2cccc(N(C)S(C)(=O)=O)c2)cc1	-6.8%	1.4%	3.8	-9.7	6.7%	-13.8%	-2.0
Cc1ccc(C(c2cc(Br)ccc2O)N2CCSCC2)cc1 (stereo not given)	/	1.2%	-8.2	2.2	15.8%	-9.0%	/
CCOC(=O)C1CCN(S(=O)(=O)NC[C@H]2O[C@@H](n3cnc4c(N)ncnc43)[C@H](O)[C@@H]2O)C1 (stereo not given in full)	/	-2.8%	-23.1	/	/	7.7%	/
CN(C)CCN1C(=O)C(=O)/C(=C(/O)c2ccc(S(=O)(=O)N3CCOCC3)cc2)C1c1ccccc1 (stereo not given)	9.1%	-3.7%	-15.8	-2.4	-2.1%	0.7%	3.8
CCOc1ccc(Cn2c3ccc(OC)cc3c3nc4ccccc4nc32)cc1OC	?	0.8%	12.6	?	?	-3.7%	?
CC(=O)Nc1ccc(OC(F)(F)C(F)C(F)(F)F)c(NC(C)=O)c1 (stereo not given)	4.0%	-2.3%	3.4	-1.2	3.5%	5.4%	-0.4
Cc1cccc(NC(=S)NNC(=O)c2sccc2C)c1	3.1%	28.8%	1.3	12.5	-1.4%	-14.5%	0.8
Cc1nnc(SCC(=O)NNC(=O)c2ccc(Cl)cc2)n1CC1CCCO1 (stereo not given)	18.6%	/	-6.8	4.2	-8.3%[15.4 µM]	12.2%	0.5
CCOc1ccc(-n2ccc(=O)c(C(=O)Nc3ccc(S(=O)(=O)N4CCOCC4)cc3)n2)cc1	9.4%	-2.8%	4.7	-7.0	?	5.1%	-0.4

Continuation.
SMILES	Sfp inh	ClpP mod	CtBP-E1A blk	TRPV1 PAM	gsp agonist	gsp antag	Menin MLL FP FL
CC(C)CCN1CCN(Cc2nc(-c3ccc(F)cc3)cs2)CC1CCO (stereo not given)	4.9%	/	-23.2	0.4	-11.0%[15.4 µM]	17.9%	-6.9
O=C(N1CCOCC1)N1CCN(CC(O)COc2ccc3ccccc3c2)CC1 (stereo not given)	8.6%	-2.6%	-0.6	0.0	3.1%	2.1%	-1.2
CC(NC(=O)Nc1ccc(O)cc1)(C(F)(F)F)C(F)(F)F	-4.2%	-1.8%	?	0.7	-16.3%	-0.3%	1.7
CCOc1ccc(N2C(=O)/C(=C/c3ccc(C)o3)N(C)C2=S)cc1	3.98µM*	1.9%	2.5	-9.0	0.8%[15.4 µM]	6.2%	7.7

Compound activity: PubChem BioAssay, National Center for Advancing Translational Sciences (NCATS)
